# 2A Renilla: Primary qHTS Assay for Foot and Mouth Disease Virus Antivirals against NCGC Sytravon and CBC Compound Libraries: Renilla Luciferase Signal; HEK cells with a luciferase reporter of 2A StopGo recoding; Potency, µM (highest dose often 57.5 µM), without a hit: at the top dose signal change, negative = less light; 120,000 compounds, 0.32% hits; AID 1745857, 2022; active means well fitted falling curve with a large enough effect; inconclusive means small, poorly fitted or top-dose-only effect; inactive means no such curve, though single readings can be large or run the other way; also: nearly all actives have a fitted effect of over 55% in size; overnight with compound
# StopGo FLuc: Primary qHTS Assay for Foot and Mouth Disease Virus Antivirals against NCGC Sytravon and CBC Compound Libraries: Firefly Luciferase Signal | HEK cells with a luciferase reporter of 2A StopGo recoding | Potency, µM (top dose mostly 57.5 µM), inactives show at the highest dose signal change, negative = less light | 120,000 compounds, 0.23% hits; active = well fitted falling curve with a large enough effect; inconclusive = small, poorly fitted or top-dose-only effect; inactive = no such curve, though single readings can be large or run the other way; also: nearly all actives have a fitted effect of over 60% in size; overnight with compound
# * marks the source's active call; other numbers are inactive results; ? = inconclusive; [ ] = dose if it differs, or a comment. % is scaled to controls: 0 for no effect and ±100 for the full control effect; potency is read from the fitted curve at half-maximal effect.
SMILES,2A Renilla,StopGo FLuc
COc1ccc(-c2nc3ccccc3c(C(=O)O)c2C)cc1,-17.8%,8.5%
Cc1ccc(NC(=O)c2ccc3[nH]c(C)c(C)c3c2)cc1,11.2%,195.8%[activator]
COc1ccc(C(=O)c2cn(Cc3cccc(C)c3)c3cc4c(cc3c2=O)OCCO4)cc1OC,22.9%,5.4%
CCOc1cc(CNc2nn[nH]n2)cc(Br)c1OCc1ccc(F)cc1,-8.2%,-0.4%
Cc1ccc(C)c(Cn2c(=O)n(CCC(=O)NCc3ccc4c(c3)OCO4)c(=O)c3sccc32)c1,-0.2%,0.0%
COc1ccc(Cn2ccc3nc(C)c(C(=O)N4CCN(c5ccccc5)CC4)cc3c2=O)cc1,15.2%,-12.0%
N#Cc1ccccc1OCC(=O)N1CCC(c2nc3ccccc3o2)CC1,-10.4%,-9.3%
O=C(Cn1nc2ccc(SCc3ccc(Cl)cc3)nn2c1=O)NCc1ccc(F)cc1,1.2%,0.1%
CCC(CC)NC(=O)COC(=O)c1ccc(C)c(C)c1,-3.9%,-0.2%
O=C(/C=C/c1csc(-c2ccccc2)n1)c1ccccc1,12.2%,46.1%[activator]

# Of the compounds above, these have a halogen.
SMILES,2A Renilla,StopGo FLuc
CCOc1cc(CNc2nn[nH]n2)cc(Br)c1OCc1ccc(F)cc1,-8.2%,-0.4%
O=C(Cn1nc2ccc(SCc3ccc(Cl)cc3)nn2c1=O)NCc1ccc(F)cc1,1.2%,0.1%

# Structures from the list above with a carbonyl joined to an NH by a bond outside any ring:
SMILES,2A Renilla,StopGo FLuc
Cc1ccc(NC(=O)c2ccc3[nH]c(C)c(C)c3c2)cc1,11.2%,195.8%[activator]
Cc1ccc(C)c(Cn2c(=O)n(CCC(=O)NCc3ccc4c(c3)OCO4)c(=O)c3sccc32)c1,-0.2%,0.0%
O=C(Cn1nc2ccc(SCc3ccc(Cl)cc3)nn2c1=O)NCc1ccc(F)cc1,1.2%,0.1%
CCC(CC)NC(=O)COC(=O)c1ccc(C)c(C)c1,-3.9%,-0.2%

# Additional structures
SMILES,2A Renilla,StopGo FLuc
COc1cc(NC(=O)N2CCOc3ccc(Cl)cc32)cc(OC)c1OC,6.7%,21.2%
CCCn1nc(C(=O)NCC(=O)Nc2ccc(F)c(F)c2)c2ccccc2c1=O,17.9%,9.4%
Cc1ccc(CCNC(=O)c2ccc(CS(=O)(=O)Cc3ccccc3F)o2)cc1,-12.8%,-5.0%
Cc1ccccc1NS(=O)(=O)c1nnc(NC(=O)c2ccc(Cl)cc2)s1,11.2%,-2.7%
CC(C)C(NS(=O)(=O)c1ccc2c(c1)oc(=O)n2C)C(=O)N1CCN(c2cccc(Cl)c2)CC1 (configuration not stated),40.9%[activator],-10.4%
Nc1nc(N)c(S(=O)(=O)c2ccccc2)c(Nc2ccc(F)cc2)n1,20.0%,9.9%
CCCCN(CCCNC(=O)c1cc(Nc2ccc(OC)cc2OC)nc2ccccc12)Cc1ccccc1,?,-27.8%
CCCCCn1c(CCNC(=O)c2cccc(C)c2)nc2ccccc21,23.2%,-4.8%
O=C(c1cn[nH]c1-c1ccc(F)cc1)N1CCCCCC1,-4.9%,-6.5%
O=C(O)c1ccc2oc(-c3ccccc3F)nc2c1,-1.7%,?
Cc1ccc(NC(=O)c2ccc(N(Cc3ccccc3)S(C)(=O)=O)cc2)cc1,42.0%[activator],17.4%
CCOc1ccc(S(=O)(=O)N2CCSC2c2ccc(OC)c(Br)c2)cc1 (configuration not stated),-1.1%,-27.8%
Cc1cc2c(cc1S(=O)(=O)N1CCC(C(N)=O)CC1)OCC(=O)N2,3.0%,-11.6%
Fc1ccccc1N1CCN(c2ncnc3onc(-c4cccc(Cl)c4)c23)CC1,-10.3%,-27.6%
OC(C#Cc1ccccc1)C#CC(O)(c1ccccc1)c1ccccc1 (configuration not stated),?,?
CCC1CN(C(=O)N2CCC(C(=O)NCc3cccc(C)c3)CC2)c2cc(C)ccc2O1 (configuration not stated),-21.2%,?
O=C1CN(C(=O)c2ccccc2)C(c2ccc(F)cc2)c2cc(Br)ccc2N1 (configuration not stated),68.2%[activator],-21.1%
COc1cccc(NC(=O)Nc2nc3ncccn3c2-c2ccc(C)cc2)c1,0.0%,189.5%[activator]
CC(C)(C)c1ccc(C(=O)Nc2c(NCc3ccccc3)c3ccccc3oc2=O)cc1,-0.5%,1.5%
COC(=O)c1ccc(CN(C)Cc2ccsc2)cc1,13.9%,55.8%[activator]

# Full records, looked up by structure:
# Fc1ccccc1N1CCN(c2ncnc3onc(-c4cccc(Cl)c4)c23)CC1 is entered as 2A Renilla: -10.3%; StopGo FLuc: -27.6%
# OC(C#Cc1ccccc1)C#CC(O)(c1ccccc1)c1ccccc1 (configuration not stated) is entered as 2A Renilla: ?; StopGo FLuc: ?

# Six structures out of the list, ordered by SMILES length, low to high.
SMILES,2A Renilla,StopGo FLuc
COC(=O)c1ccc(CN(C)Cc2ccsc2)cc1,13.9%,55.8%[activator]
OC(C#Cc1ccccc1)C#CC(O)(c1ccccc1)c1ccccc1 (configuration not stated),?,?
CCOc1ccc(S(=O)(=O)N2CCSC2c2ccc(OC)c(Br)c2)cc1 (configuration not stated),-1.1%,-27.8%
Cc1cc2c(cc1S(=O)(=O)N1CCC(C(N)=O)CC1)OCC(=O)N2,3.0%,-11.6%
O=C1CN(C(=O)c2ccccc2)C(c2ccc(F)cc2)c2cc(Br)ccc2N1 (configuration not stated),68.2%[activator],-21.1%
CC(C)(C)c1ccc(C(=O)Nc2c(NCc3ccccc3)c3ccccc3oc2=O)cc1,-0.5%,1.5%

# The listing continues.
SMILES,2A Renilla,StopGo FLuc
Cc1ccc2nc(-c3ccccc3)c(C)c(C(=O)O)c2c1,-5.0%,2.6%
Cc1ccc(C(NC(=O)Cc2ccccc2C)c2cccnc2)cc1C (configuration not stated),20.6%,9.4%
CC1=C(C(=O)Nc2ccccc2C)C(c2ccc[nH]2)n2ncnc2N1 (configuration not stated),-0.3%,-23.8%
Cc1nn(-c2ccc(N3CCCCC3)nn2)c(C)c1CCC(=O)NCc1ccc(F)cc1,1.5%,-11.6%
CCCN(Cc1cc2cc(C)ccc2[nH]c1=O)S(C)(=O)=O,-4.4%,3.0%
COc1ccc(-c2nc(CN3CCC(C(=O)NCc4ccc(C)cc4)CC3)c(C)o2)cc1OC,29.4%,1.2%
CCc1c(C(=O)Nc2ccccc2C#N)csc1C,12.2%,13.9%
Cc1ccc(F)cc1NC(=O)c1nc2ccccc2nc1N1CCOCC1,-1.6%,2.1%
CC(=O)c1ccc(-c2cccc(Cl)c2Cl)o1,-2.4%,0.0%
Cc1cc(C(=O)OCCOc2ccccc2C)c2ccccc2n1,7.1%,7.5%
CC(Sc1cc(-c2ccccc2)ncn1)C(=O)c1ccccc1 (configuration not stated),10.3%,219.0%[activator]
CC(Sc1ccccn1)C(=O)Nc1ccc(Cl)cc1 (configuration not stated),-5.5%,0.0%
Cc1ccc(Nc2nc3ccccc3c3nnc(C)n23)cc1Cl,-11.9%,9.8%
O=C(c1ccccc1F)N(Cc1ccco1)C1CC1,-3.9%,11.2%
CCC1CCCN(Cc2nc(N)c3ccccc3n2)C1 (configuration not stated),-13.5%,6.4%
COc1ccc(-c2cc3nc(C)c(CCC(=O)Nc4ccc(F)cc4F)c(C)n3n2)c(OC)c1,-8.3%,-8.1%
Cc1ccc(C)c(OCCC(=O)N2CCN(S(=O)(=O)c3cccs3)CC2)c1,5.1%,-6.3%
COc1cccc(NC(=O)CN(C)CC(=O)NC(=O)NCc2ccccc2)c1,4.4%[1.06 µM],72.7%[activator]
Cc1ccc(NC(=O)Cn2nc(-c3ccc(Cl)cc3)c3ccccc3c2=O)cc1,-11.9%,-16.6%
Cc1ccc(CN(CC(=O)N(C)Cc2ccsc2)C2CC2)cc1,17.4%,9.0%
CCc1ccc(CNC(=O)c2ccc(CN3C(=O)CCn4nccc43)cc2)cc1,27.6%,0.8%
COc1cc(OC)c(NC(=O)c2nc3ccccc3nc2N2CCCC2)cc1Cl,-13.3%,-4.0%
CCN(C(=O)c1cc2c(s1)-c1ccccc1SC2)c1cc(C)ccc1C,12.8%,-17.8%
COCc1c(Br)c(C)nc2sc3c(=O)n(-c4cccc(Br)c4)nnc3c12,-13.8%,-11.2%
Cc1ccc(C(=O)Nc2c(NCc3ccccc3)c3ccccc3oc2=O)cc1,17.2%,22.9%
CC(C)c1ccc(-c2nonc2NC(=O)c2cc(=O)c3ccc(Br)cc3o2)cc1,-1.9%,-0.8%
O=C(Nc1ccccc1)c1nn(Cc2ccccc2)c(=O)c2ccccc12,19.8%,0.0%
Cc1cnc(NC(=O)CCNC(=O)c2ccsc2)s1,257.1%[activator],314.8%[activator]
O=C(Nc1ccc2c(c1)OCO2)c1cc(-c2cccc(Cl)c2)on1,-5.2%,-4.8%
Cc1ccc(CNc2nc3ccc(C)cc3n3nnnc23)cc1,6.5%,-14.9%
CCCCn1nnc(NC(=O)c2cc3ccccc3cc2OC)n1,0.0%,21.3%
Cc1ccc(N2CCN(C(C(=O)O)c3cn(CC(=O)O)c4ccccc34)CC2)c(C)c1 (configuration not stated),-9.4%,-2.0%
CC(C)CCNC(=O)c1cc2ccccc2oc1=O,-11.1%,7.4%
Cc1ccc2c(CC(=O)Nc3cc(C(F)(F)F)ccc3Cl)coc2c1C,-18.2%,1.3%
CCOc1cc(CNC(=O)c2cc(-c3ccccc3)n[nH]2)cc(OCC)c1OCC,11.6%,-7.2%
CN(C)c1cc(C#N)ccn1,6.4%,7.0%
Cc1ccc(S(=O)(=O)N(CC(=O)NCCc2ccc(Cl)cc2)c2ccccc2C)cc1,14.3%,-22.5%
COc1ccc(-c2nc3cc(NC(=O)c4ccccc4OC)ccc3o2)cc1,-9.3%,25.8%
COc1ccc(Nc2nc(N3CCOCC3)c3nccnc3n2)cc1OC,21.0%,55.8%[activator]
O=S(=O)(Nc1ccc(-c2ccc(N3CCCC3)nn2)cc1)c1ccc(Br)cc1,188.4%[activator],5.4%
CC(C)c1ccc(C(C)NC(=O)/C=C/c2ccccc2F)cc1 (configuration not stated),29.6%,24.1%
CN(Cc1ccccc1)C(=O)COc1ccc2c(C(F)(F)F)cc(=O)oc2c1,12.9%,1.3%
Cc1nc(SC2=CS(=O)(=O)c3ccccc32)oc1C,31.2%[activator],0.0%
COc1ccc(N2CCN(Cc3nc(-c4ccc(C)cc4)no3)CC2)cc1,-0.8%,-8.5%
Cn1c(N)c(C(=O)CSc2ccc3ccccc3n2)c(=O)n(C)c1=O,7.9%,15.8%
CCOC(=O)C(Cc1ccccc1)NC(=O)CCc1c(C)nc2nc(C)nn2c1C (configuration not stated),-3.4%,0.6%
CCOc1ccc(CCNC(c2cccc(Cl)c2)c2nnc(-c3ccccc3)o2)cc1OCC (configuration not stated),2.5%,-20.8%
CC1(C)C2CCC1(C)C(OC(=O)C[N+](C)(C)C)C2 (configuration not stated),3.8%,4.3%
COc1ccc(C(CNC(=O)c2ccc3c(c2)OCCO3)N2CCOCC2)cc1 (configuration not stated),-5.4%,13.8%
CCN1CCCC1CNC(=O)c1nn(Cc2ccccc2)c(=O)c2ccccc12 (configuration not stated),-4.4%,-15.1%
# Next part:
SMILES,2A Renilla,StopGo FLuc
COCCN1C(=O)c2[nH]nc(-c3c(C)cc(C)cc3O)c2C1c1cccc(O)c1 (configuration not stated),44.0%[activator],-7.7%
CCc1ccc(-c2noc(CSc3nnc(-c4ccccc4OC)n3CC)n2)cc1,?,?
CCn1cc(C(=O)O)c(=O)c2cc(F)c(N3CCN(C)CC3)cc21,-9.2%[23.8 µM],-17.3%[27 µM]
COc1ccc(-c2noc(CN3CCCC(C(=O)Nc4ccc(-c5ccno5)cc4)C3)n2)cc1OC (configuration not stated),?,?
COc1ccc(-c2cc(N3C(=O)Nc4ccccc4N3O)n[nH]2)cc1,2.8%,9.0%
O=C(Nc1nc2c(F)cccc2s1)c1ccc(S(=O)(=O)N2CCCc3ccccc32)cc1,-3.4%,-3.3%
CC(C)C[C@H](NC(=O)c1ccc2nc(-n3cccc3)sc2c1)C(=O)NCc1ccco1,-5.2%,2.2%
c1ccc2sc(SSc3nc4ccccc4s3)nc2c1,-2.1%[23.8 µM],-1.3%[27 µM]
CCCNC(=O)c1cc(=O)[nH]c2ccc(S(=O)(=O)N3CCOCC3)cc12,1.6%,4.0%

# These rows are one share of the data; count on the stated rates, not on these rows.
